# Screening results (PubChem BioAssay)
# NPYLR7 agonist: mosquito NPYLR7 agonism. HEK293T NPYLR7/Galpha15, GCaMP6s calcium fluorescence. activation, % at 10 µM. 0.15% of 270,000 active. AID 1259423; in the data active = activation above about 40%;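 also: 0% = vehicle and 100% = reference agonist at the receptor; some compounds past the cut are filed as inactive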
# NPYLR7 agonist max-min: second read-out of NPYLR7 agonist, no call of its own (marks repeat the call); activation, %; measured here: Max-Min RFU normalised activation; some inactives read as strong as hits;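 span of the calcium signal over five minutes; 0% = vehicle and 100% = native peptide agonist; compound fluorescence can raise it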
# Active calls of the source: *; & = joins results of further samples. This is a subset, so the mix of outcomes need not match the whole.
SMILES,NPYLR7 agonist,NPYLR7 agonist max-min
Fc1ccc(CSCc2csc(-c3ccc(C(F)(F)F)cc3)n2)cc1,11,13
Cc1cc(Oc2cccc(Cl)c2)nc(SCc2cc(F)ccc2F)n1,3,13
Cc1ccccc1CSc1nc2c(c(=O)n1Cc1ccccc1)SCC2,8,0
O=C(O)CN1C(=O)CSc2nnc(COc3cc(Cl)ccc3Cl)n21,24,10
NC1(C(=O)O)CC1,-7&2,-12&3
Cc1cc(CC(C)NC(=O)c2ccc3c(c2)nnn3C)n[nH]1 (stereo not given),4,-5
O=C(NCC1CCCO1)C1COC2(CCN(C(=O)c3ccccc3Cl)CC2)N1C(=O)c1ccco1 (stereo not given),-2,-3
CC1CCc2c(sc3ncn(CC(=O)Nc4ccccc4C(C)(C)C)c(=O)c23)C1 (stereo not given),-4,-7
Cc1cccc(-c2cc(N)n(-c3ccc(C(=O)NCc4cccs4)cc3)n2)c1,-5,-14
Cc1ccnc(NC(=O)CN(C)C(=O)c2cc(C)n(C3CC3)c2C)c1,12,5
COc1cc(CN2CCC(C(=O)NC(c3ccc(Cl)cc3)c3ccsc3)CC2)cc(OC)c1 (stereo not given),7,3
CCCCCCNC(CC(=O)Nc1ccc(OC(F)F)cc1)C(=O)O (stereo not given),-10,-10
O=C(CCN(CCCN1CCOCC1)c1nc(C2CC2)nc2ccccc12)NCc1ccccc1,13,7
Cc1cc(C)n(C2CCN(C(=O)c3cccc(-n4cccn4)c3)C2)n1 (stereo not given),20,8
CN(C)CCN(Cc1nccn1Cc1ccc(C(F)(F)F)cc1)C(=O)c1ccco1,7,20
CC(c1cccc(-c2cc(O)c(F)c(F)c2)c1)N(C)C (stereo not given),10,7
CCN1CCN(c2ccc(NC(=O)CN(C)C(C)c3cccs3)cc2)CC1 (stereo not given),3,1
COC(=O)c1cccc(CN2C(=O)C(C)(C)ON=C2c2ccc3c(c2)OCO3)c1,8,5
Cc1cccc(NC(=O)N2CCN(C(c3ccc(F)cc3)c3ccc(F)cc3)CC2)c1,8,9
CC(OC(=O)C1CCN(C(=O)c2ccco2)CC1)C(=O)N(C)c1ccccc1 (stereo not given),0,1
COCCCn1cc(C(=O)N2CCN(CC(=O)NC(C)C)CC2)c2nn(-c3ccccc3)c(=O)c-2c1,-1,-1
CC(c1ccc(S(C)(=O)=O)cc1)N(C)S(=O)(=O)c1ccc(F)cc1Cl (stereo not given),-2,-3
COc1ccc(-c2cc(C(=O)NC(C)c3ccccc3)n3nc(-c4ccccc4)cc3n2)cc1 (stereo not given),17,14
CC(NC(=O)NCc1ccc(C(F)(F)F)cc1)c1ccncc1 (stereo not given),7,4
CC1(C)CC(=O)CC(C)(C)N1OC(=O)c1ccco1,14,11
COc1ccc2c(c1)OC(C)(C)CC2NC(=O)CCc1cnccn1 (stereo not given),-6,-6
CCN(CCN1CCCC1)C(=O)c1cc(C)c(C)cc1C,2,9
Cc1nn2c(-n3ccnc3C)cc(C(C)(C)C)nc2c1-c1ccc(Cl)cc1,0,20
CCC1CCCCN1C(=O)CCNC(=O)Cc1ccc(C(F)(F)F)cc1 (stereo not given),-1,-4
Cc1cc(C(=O)NC(C)(C)C)n2nc(C(C)(C)C)cc2n1,15,10
CC(=O)Nc1sc2c(c1C(c1ccc(Cl)cc1)N1CCOCC1)CCCC2 (stereo not given),-5,-9
CCN(CC)c1onc(-c2ccc(F)cc2)c1CN(CCN(C)C)C(=O)Nc1cccc(Cl)c1,8,11
C=CCN(Cc1csc(COc2ccc(OC)cc2)n1)C(=O)c1cccs1,0,6
O=C(c1ccc(CO)o1)N1CCc2c(ncnc2N2CCOCC2)C1,28,25
COc1ccccc1OCCN1C(=O)SC(=Cc2ccccc2)C1=O,1,-4
COc1cccc(C(=O)NC(C(=O)N2CCCC2)C2CCN(C(=O)c3ccccc3F)CC2)c1 (stereo not given),-3,-1

# 17 entries out of the list, arranged by length of the SMILES, rising:
SMILES,NPYLR7 agonist,NPYLR7 agonist max-min
CCN(CCN1CCCC1)C(=O)c1cc(C)c(C)cc1C,2,9
CC1(C)CC(=O)CC(C)(C)N1OC(=O)c1ccco1,14,11
CC(c1cccc(-c2cc(O)c(F)c(F)c2)c1)N(C)C (stereo not given),10,7
CC(NC(=O)NCc1ccc(C(F)(F)F)cc1)c1ccncc1 (stereo not given),7,4
CCCCCCNC(CC(=O)Nc1ccc(OC(F)F)cc1)C(=O)O (stereo not given),-10,-10
Cc1cc(C(=O)NC(C)(C)C)n2nc(C(C)(C)C)cc2n1,15,10
CCC1CCCCN1C(=O)CCNC(=O)Cc1ccc(C(F)(F)F)cc1 (stereo not given),-1,-4
C=CCN(Cc1csc(COc2ccc(OC)cc2)n1)C(=O)c1cccs1,0,6
CCN1CCN(c2ccc(NC(=O)CN(C)C(C)c3cccs3)cc2)CC1 (stereo not given),3,1
Cc1ccnc(NC(=O)CN(C)C(=O)c2cc(C)n(C3CC3)c2C)c1,12,5
Cc1nn2c(-n3ccnc3C)cc(C(C)(C)C)nc2c1-c1ccc(Cl)cc1,0,20
CC(OC(=O)C1CCN(C(=O)c2ccco2)CC1)C(=O)N(C)c1ccccc1 (stereo not given),0,1
CC(c1ccc(S(C)(=O)=O)cc1)N(C)S(=O)(=O)c1ccc(F)cc1Cl (stereo not given),-2,-3
Cc1cccc(NC(=O)N2CCN(C(c3ccc(F)cc3)c3ccc(F)cc3)CC2)c1,8,9
COc1cc(CN2CCC(C(=O)NC(c3ccc(Cl)cc3)c3ccsc3)CC2)cc(OC)c1 (stereo not given),7,3
CCN(CC)c1onc(-c2ccc(F)cc2)c1CN(CCN(C)C)C(=O)Nc1cccc(Cl)c1,8,11
COCCCn1cc(C(=O)N2CCN(CC(=O)NC(C)C)CC2)c2nn(-c3ccccc3)c(=O)c-2c1,-1,-1

# Next results follow.
SMILES,NPYLR7 agonist,NPYLR7 agonist max-min
O=C(CCCSc1nnc(-c2ccccc2Cl)n1-c1ccccc1)NCCc1ccc(Cl)cc1Cl,-1,6
CCn1c(O)c(C=NCC2CCCCC2)c(=O)n(CC)c1=S,7,5
Cc1[nH]cnc1CN(C)Cc1ccccc1-n1cccn1,4,4
COCCN1CCCC[C@]2(C[C@H](C(=O)O)[C@H](c3ccccc3)N2C(=O)Cc2cccs2)C1=O,2,5
Cc1cc(O)c(S(=O)(=O)c2cc(Cl)c(Cl)cc2Cl)c(=O)[nH]1,6,10
CN1CC(O)C(O)C(O)C1CO (stereo not given),-1,-31
CCCn1cc(-c2ccnc(NC3CCOCC3)n2)c(C)n1,1,6
COc1nc(-c2cccc(C(F)(F)F)c2)n(-c2cccc(NC(=O)c3ccc(C(F)(F)F)cc3)c2)n1,6,9
CCCCn1c(=O)[nH]c(=O)c2c1ncn2CCOC,13,11
CCCc1cn(CC2CCN(Cc3cc(C)nn3C)CC2)nn1,22,6
Cn1ncc(CN2CCN(c3ncnc4ccccc34)CC2)c1C1CC1,0,-5
Cc1ccc(-c2nc(C)c(C(C)C)c(N3CCN(S(=O)(=O)c4ccc(Cl)cc4)CC3)n2)cc1,17,26
COCCNC(=O)N1CCN(c2nsc3ccccc23)CC1,1,0
O=C(Nc1cn[nH]c1)c1cc(Br)c[nH]1,-3,-4
CC(=O)C(C)n1c(CN(Cc2ccccc2)Cc2ccccc2)nc2c1c(=O)n(C)c(=O)n2C (stereo not given),-11,-14
Cc1c(C(=O)N2CCN(C)C3(CCN(C)CC3)C2)sc2ccccc12,-3,-5
Clc1cc2c(c(CSc3nnc(NCC4CCCO4)s3)c1)OCOC2 (stereo not given),3,0
COc1ccc(-c2nc(CN3CCN(c4ccc(C)cc4C)CC3)c(C)o2)cc1,11&-5,8&-10
COCCOC(=O)N1CC[C@@H](c2ccc3ccccc3c2)[C@H](O)C1,2,1
Cc1sc2ncn(NC(=S)NCCCN(C)C)c(=O)c2c1C,6,24
COc1ccc(N2C(=O)CN(C(=O)Cn3cc4ccccc4n3)CC2(C)C)cc1,-3,-5
O=C(NC1CCC(NC(=O)[C@H]2CCCN2S(=O)(=O)c2ccc(Cl)c([N+](=O)[O-])c2)CC1)c1ccccc1 (stereo not given in full),4,15
COCCN(Cc1cnn(C)c1)C(=O)c1cn(-c2ccccc2)nn1,-2,-4
CC(C)c1ccc(/C=C2\Oc3c(ccc4c3CN(C3CCS(=O)(=O)C3)CO4)C2=O)cc1 (stereo not given),43,37
COCc1c(Br)c(C)nc(OCC(=O)N/N=C\c2cc(Br)c(Oc3ccc([N+](=O)[O-])cc3[N+](=O)[O-])c(OC)c2)c1C#N,13,22
CCc1ccc[n+](-c2[nH]c(=O)sc2C=NNC(N)=O)c1,4,52
Cc1nc(SCc2ccc(C(=O)O)cc2)nc(N2CCOCC2)c1C,10,17
Cc1ccnc(CC(C)N2CCC(n3nccc3NC(=O)Nc3ccccc3C)CC2)c1 (stereo not given),1,-1
CN(C)CC1CCN(C(=O)c2ccccc2-c2ccccc2C#N)CC1,-1,-2
CCN(CC)C(CNS(=O)(=O)c1ccccc1)c1ccccc1Cl (stereo not given),1,-4
O=c1c(-c2cccc(C(F)(F)F)c2)[n+]([O-])c2ccccc2n1O,13,7
Cc1c(Br)c(C(F)(F)F)nn1CC(=O)NCC#N,-3,-10
OCCNc1nc(-c2ccccc2)c2cc(Br)ccc2n1,-8,-14
Cc1ccc(C(NS(=O)(=O)c2cccs2)c2ccccc2)cc1C (stereo not given),2,2
Cc1ccc(-n2c(=O)[nH]cc(C(=O)Nc3ccccc3Cl)c2=O)cc1C,-5,-8
C[C@H](NC(=O)[C@@H](C)N1Cc2ccc(-c3ccnn3C)nc2C1=O)c1ccc(F)cc1,7,19

# The closing 2 entries of the part before are carried over, then new ones follow.
SMILES,NPYLR7 agonist,NPYLR7 agonist max-min
Cc1ccc(-n2c(=O)[nH]cc(C(=O)Nc3ccccc3Cl)c2=O)cc1C,-5,-8
C[C@H](NC(=O)[C@@H](C)N1Cc2ccc(-c3ccnn3C)nc2C1=O)c1ccc(F)cc1,7,19
COc1ccc(NC(=O)Cn2nc([N+](=O)[O-])c([N+](=O)[O-])c2C)c(OC)c1,1,-2
C=CCn1c(SC(CCC)C(=O)OCC)nnc1-c1cccc(C)c1 (stereo not given),-9,0
Cc1ccc(-c2nc3ccccn3c2NC(=O)C(C)(C)C)cc1,-5,-4
Cc1ccc(C(=O)CSc2nnc(NC(=O)CCC3CCCC3)s2)c(C)c1,24,21
C#CCn1c(=NC(=O)c2ccn(C)n2)sc2cc3c(cc21)OCCO3,1,6
COc1ccc(-n2nc(-c3ccccc3)cc2C(=O)N2CCN(c3ccc([N+](=O)[O-])cc3)CC2)cc1,7,6
Cc1ccc(S(=O)(=O)N2c3ccccc3Oc3ccccc32)cc1,12,9
Cc1nn2c(=O)[nH]c(SCC(=O)NCc3ccc4c(c3)OCO4)nc2c1-c1ccccc1,9,-1
C=CCONC(=O)C1CCN(Cc2cnc3ccccn23)CC1,9,10
CN(CC1CCCCO1)c1ncnc2c1CCN(C(=O)c1cccnc1)C2 (stereo not given),6,4
CCSCCOC(=O)C1=C(C)NC2=C(C(=O)CC(C)(C)C2)C1c1coc2ccccc2c1=O (stereo not given),-9,-14
CCN(CC)S(=O)(=O)c1ccc(Oc2ccccc2)c(NC(=O)c2ccccn2)c1,10,7
CO[C@]12C[C@@H](COC(=O)c3cncc(Br)c3)CN(C)[C@@H]1CC1=CN(C)C3C=CC=C2C13 (stereo not given in full),-15,-21
COc1cccc(NC(=O)C(C#N)C(=O)Cc2c(C)noc2C)c1 (stereo not given),13,3
Cc1ccc(CNC(=O)CCC2CCCN(C(=O)c3ccc4[nH]ccc4c3)C2)o1 (stereo not given),10,6
CC(C)CN(Cc1cccn1Cc1ccccc1Cl)C(=O)CN(CC(C)C)C(=O)c1cccc(F)c1,-6,1
CC(=O)Nc1cccc(-n2ccnc2-c2cccc(-n3cccn3)c2)c1,0,-2
Cc1cccc(N2CCN(C(=O)C3CCCN(C(=O)N(C)C)C3)CC2)c1 (stereo not given),5,4
CC1=NOC(C)(CNC(=O)CCc2n[nH]c3c2CCCC3)C1 (stereo not given),1&-2,0&-4
CC(=O)Nc1cnc(-c2cccc(C(=O)N3CCOCC3)c2)cn1,-1,-1
